HPGD inh – inhibitors of human 15-hydroxyprostaglandin dehydrogenase (HPGD) | Potency, µM, for inactives: at the top dose activity change, negative = inhibition, hits mostly inhibitors | 150,000 compounds, 4.3% hits | P15428 | AID 894 | purified HPGD, NADH fluorescence kinetic, PGE2 substrate; active = well fitted inhibition curve with a large enough effect (not every such curve was filed as active); inconclusive = small, poorly fitted or top-dose-only effect, or another doubt; inactive = no such curve, though single readings can be large or run the other way;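 further: top concentration of the series not given in the record; plate controls included wells without enzyme; inactives centre near -10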
Target sequence (P15428 whole entry, looked up): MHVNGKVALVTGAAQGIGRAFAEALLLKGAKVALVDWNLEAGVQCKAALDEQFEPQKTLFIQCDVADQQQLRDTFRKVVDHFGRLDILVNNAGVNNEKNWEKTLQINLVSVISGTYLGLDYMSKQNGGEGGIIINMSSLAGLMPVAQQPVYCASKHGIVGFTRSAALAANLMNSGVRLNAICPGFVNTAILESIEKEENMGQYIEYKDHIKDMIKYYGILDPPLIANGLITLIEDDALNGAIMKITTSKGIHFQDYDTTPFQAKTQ
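NADH formation kinetics: reaction with 30 uM PGE2 and 1 mM NAD+ (final), 20 nM enzyme, Tris-HCl pH 8 with Tween 20, after 15 min compound preincubation at room temperature. Fluorescence change, last versus first of five reads.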
Numbers without * were called inactive. On the % scale 0 is the no-effect control and ±100 the full control effect; potency means the concentration at half of the fitted maximal effect. This is a subset (hit frequency here may not be typical).

For COc1ccc(N2CCN(C(=O)CSc3nnc4c(C)cc5cc(C)ccc5n34)CC2)cc1 the results were HPGD inh -13%.
Screening COC(=O)c1ccc(NC(=O)c2ccccc2SC)cc1 returned HPGD inh -12%.
O=C(COC(=O)c1cc[n+]([O-])cc1)Nc1ccc2c(c1)OCCO2 was read as HPGD inh -3%.
Screening O=C(Nc1nc(-c2ccncc2)cs1)C1COc2ccccc2O1 (stereo unspecified) returned HPGD inh 7.9µM*.
`CC1CCN(CCCNC(=O)c2coc3nc4ccccc4nc23)CC1` gave HPGD inh inconclusive.
`Cc1c(NC(=O)c2nn3c(c2Br)NC(c2ccccc2)CC3C(F)(F)F)c(=O)n(-c2ccccc2)n1C` (stereo unspecified) gave HPGD inh -13%.
Cc1c(Nc2cc(=O)oc3ccccc23)c(=O)n(-c2ccccc2)n1C was read as HPGD inh -5%.
For O=c1[nH]c(SCc2nc3ccccc3n2Cc2ccccc2)nc2ccccc12 the results were HPGD inh inconclusive.
Screening CCn1c(CC(=O)Nc2ccc(C)cc2)nnc1SCC(=O)Nc1nc(C)cs1 returned HPGD inh -25%.
Screening CCOC(=O)CN(c1ccccn1)S(=O)(=O)c1ccccc1 returned HPGD inh inconclusive.
Screening CCOC(=O)C(CCCOc1ccccc1C)C(=O)OCC returned HPGD inh -14%.
For Cc1nc2ccccc2cc1C(=O)O the results were HPGD inh -3%.
Screening COCCn1c(Cc2ccccc2)nnc1SCC(=O)N(C)C returned HPGD inh 0%.
CC1CCC(C(C)C)C(OC(=O)C2=C3c4ccccc4S(=O)(=O)N3CC2)C1 (stereo unspecified) was read as HPGD inh inconclusive.
Cc1cc2ncc(C(=O)Nc3ccccc3)c(C)n2n1 was read as HPGD inh -2%.
COc1ccccc1N1CCN(/N=C/c2c(C)nn(-c3ccccc3)c2C)CC1 was read as HPGD inh -4%.
O=C(CCn1cnc2ccccc2c1=O)Nc1ccc(S(=O)(=O)N2CCCCC2)cc1 was read as HPGD inh -8%.
For COc1ccc(OC)c(C2=Nn3c(nnc3-c3ccncc3)SC2)c1 the results were HPGD inh -12%.
COc1ccccc1N1CCN(c2cc(C)nc3nc(C)nn23)CC1 was read as HPGD inh -2%.
`COc1cccc(NC(=O)C2CCCN2C(=O)Nc2cccc(F)c2)c1` (stereo unspecified) gave HPGD inh -14%.
For Cc1cccc(OCc2nc(-c3ccccn3)n[nH]2)c1 the results were HPGD inh -18%.
CCCCCCn1c(SCC(=O)c2ccccc2)nc2c1c(=O)[nH]c(=O)n2C was read as HPGD inh -22%.
O=C(Cc1cccs1)Nc1nnc(SCC(=O)NC2CCCCC2)s1 was read as HPGD inh -13%.
Screening O=C(COC(=O)c1oc2ccccc2c1COc1ccccc1)NCCN1C(=O)CSC1=O returned HPGD inh -6%.

Molecules listed so far that have a furan ring, fused or not (2):
`CC1CCN(CCCNC(=O)c2coc3nc4ccccc4nc23)CC1` gave HPGD inh inconclusive.
Screening O=C(COC(=O)c1oc2ccccc2c1COc1ccccc1)NCCN1C(=O)CSC1=O returned HPGD inh -6%.

(next part)
`Cc1ccc(C)c(N2CCN(S(=O)(=O)c3ccc4c(c3)OCCO4)CC2)c1` gave HPGD inh -5%.
For CC(=O)Nc1ccc(-c2nnc(SCC(=O)NCc3ccco3)n2C)cc1 the results were HPGD inh -19%.
Screening CC(C)NC(=O)c1cc(-c2ccco2)on1 returned HPGD inh -30%.
For CCOC(=O)COc1ccc2ccccc2c1/C=C/[N+](=O)[O-] the results were HPGD inh 3.5µM*.
Screening Cc1ccc(C)n1-c1cccc(NC(=O)c2ccccc2)c1 returned HPGD inh -10%.
`COC(=O)C(C(=O)Nc1ccccc1C)C1CCCC1` (stereo unspecified) gave HPGD inh -1%.
For O=C(NC1CCCCCC1)c1nc2ncccn2n1 the results were HPGD inh -7%.
For CC1=C(C(=O)Nc2ccccc2)C(c2ccc3c(c2)OCO3)C2=C(CCCC2=O)N1 (stereo unspecified) the results were HPGD inh inconclusive.
Screening COc1ccc(CNC(=O)CSc2ccc(Br)cc2)cc1OC returned HPGD inh -13%.
Screening C/C(=N/NC(=O)Cc1c(C)[nH][nH]c1=O)c1ccc(O)cc1 returned HPGD inh -12%.
`COc1ccc(N(Cc2cc3ccccc3[nH]c2=O)S(C)(=O)=O)cc1` gave HPGD inh -12%.
For CCOC(=O)CN(C(=O)CSc1nnc(CNc2ccc(C)cc2C)o1)c1ccccc1 the results were HPGD inh -16%.
`CCN(CC)S(=O)(=O)c1ccc(C(=O)Oc2ccc3c(c2)OCO3)cc1` gave HPGD inh inconclusive.
Screening CCOC(=O)c1ccc(NC(=O)CN2C(=O)CCC2=O)cc1 returned HPGD inh -6%.
Screening O=C1c2ccccc2NC(c2ccc(O)cc2)N1Cc1ccco1 (stereo unspecified) returned HPGD inh inconclusive.
O=C(Cn1c(C(F)(F)F)nc2ccccc21)c1ccc(Cl)cc1 was read as HPGD inh 2%.
Screening O=C(c1sc2ccccc2c1Cl)N(Cc1ccccc1)C1CCS(=O)(=O)C1 (stereo unspecified) returned HPGD inh -4%.
`CC(C)Cc1nnc(NS(=O)(=O)Cc2ccccc2)s1` gave HPGD inh 20µM*.
For CCOC(=O)COc1cccc2c(=O)n(CC(=O)NCCc3ccccc3)ccc12 the results were HPGD inh -12%.
For O=C(CSc1nnc2scc(-c3ccc(Cl)cc3)n12)NCc1ccco1 the results were HPGD inh -13%.
`O=C(Nc1cc(C(F)(F)F)ccc1N1CCOCC1)c1c(F)c(F)c(F)c(F)c1F` gave HPGD inh 0%.
COc1c2ccc(C(=O)NCCCCc3ccccc3)cc2nn1C was read as HPGD inh inconclusive.
`CN(C)Cc1nc2c(c(=O)[nH]1)C(C)(C)Cc1ccccc1-2` gave HPGD inh -22%.
CC1(C)CC(=O)CC(=Nc2ccc3[nH]c(=O)[nH]c3c2)C1 was read as HPGD inh -15%.
`O=C(Cn1cc(SCc2ccc(F)cc2)c2ccccc21)N1CCOCC1` gave HPGD inh -8%.
COC(=O)[C@@]1(Cc2ccc(F)cc2)[C@@H]2C(=CC(=O)[C@H]2CC(=O)C(=O)N(C)C)CN1C(=O)c1ccccc1 was read as HPGD inh -2%.
`CC(C)(C)SCCNC(=O)CN(c1ccc(F)c(Cl)c1)S(C)(=O)=O` gave HPGD inh -8%.
O=C(NCC1CCCO1)c1onc(CSc2ccccc2)c1C(=O)O (stereo unspecified) was read as HPGD inh -9%.
`Cc1nnc(SCC(=O)NCc2ccccc2)[nH]c1=O` gave HPGD inh -3%.
For O=C(CCn1cccc1)Nc1cccc(F)c1 the results were HPGD inh -9%.
`O=C(COC(=O)c1ccccc1C(=O)c1ccccc1)NCCc1ccccc1` gave HPGD inh -3%.
For Cc1ccc(C(=O)Nc2cc([N+](=O)[O-])ccc2F)s1 the results were HPGD inh -11%.
O=C(c1ccccn1)N(Cc1cc2ccccc2[nH]c1=O)C1CCCCC1 was read as HPGD inh -12%.
`CN1CCN(CC(O)COc2ccc(Cl)cc2)CC1` (stereo unspecified) gave HPGD inh 2%.
Screening O=C(Nc1ccccc1)C1CC2CCCC(C1)C2=O (stereo unspecified) returned HPGD inh -3%.
CC1Cc2nc(SCC(=O)NCCc3ccccc3)n(C)c(=O)c2S1 (stereo unspecified) was read as HPGD inh -10%.
`COC(=O)c1ccccc1NC(=O)COC(=O)c1ccco1` gave HPGD inh -25%.
Screening O=C1C(NS(=O)(=O)c2cccs2)=C(N2CCN(c3cccc(Cl)c3)CC2)C(=O)c2ccccc21 returned HPGD inh -14%.
Screening CCC12CN(S(=O)(=O)c3ccc(C)cc3)CC(CC)(CN(S(=O)(=O)c3ccc(C)cc3)C1)C2=O returned HPGD inh -11%.
`CC(=O)Nc1ccc(S(=O)(=O)N2CCN(C3CCCCCCC3)CC2)cc1` gave HPGD inh -14%.
CCOc1ccc(OCCOCCOc2ccccc2Cl)cc1 was read as HPGD inh -7%.
COc1ccc(C2=Nc3cc(C)ccc3OC2)cc1 was read as HPGD inh -26%.
Screening Cc1ccc(/C=N/NC(=O)CSc2nc3nc(C)cc(C)n3n2)cc1 returned HPGD inh -10%.
For CCN(CC)C(=O)CSc1ncnc2c1cnn2Cc1ccccc1 the results were HPGD inh -25%.
CC(C)CC1(C(=O)NCC2CC2)C=CCN1C(=O)c1ccccc1 (stereo unspecified) was read as HPGD inh 18µM*.
Screening CCC(C)c1ccc(NC(=O)C2CCN(c3ccc(C(F)(F)F)cn3)CC2)cc1 (stereo unspecified) returned HPGD inh -3%.
For O=c1c(Br)c(N2CCCC2)cnn1-c1ccccc1 the results were HPGD inh -5%.
Screening O=C(COC(=O)Cc1ccccc1F)Nc1ccc(SC(F)F)cc1 returned HPGD inh inconclusive.

Continued, overlapping the part above by five compounds.
For CCN(CC)C(=O)CSc1ncnc2c1cnn2Cc1ccccc1 the results were HPGD inh -25%.
CC(C)CC1(C(=O)NCC2CC2)C=CCN1C(=O)c1ccccc1 (stereo unspecified) was read as HPGD inh 18µM*.
Screening CCC(C)c1ccc(NC(=O)C2CCN(c3ccc(C(F)(F)F)cn3)CC2)cc1 (stereo unspecified) returned HPGD inh -3%.
For O=c1c(Br)c(N2CCCC2)cnn1-c1ccccc1 the results were HPGD inh -5%.
Screening O=C(COC(=O)Cc1ccccc1F)Nc1ccc(SC(F)F)cc1 returned HPGD inh inconclusive.
`O=C(N/N=C/c1c[nH]c2ccc(Br)cc12)c1ccn(Cc2ccc(Cl)cc2)n1` gave HPGD inh -16%.
Screening O=C(NC1CCCC1)C(c1ccccc1)N(C(=O)c1ccno1)c1ccccc1 (stereo unspecified) returned HPGD inh -1%.
Screening COCn1c(COc2ccc3ccccc3c2)nc2ccccc21 returned HPGD inh -2%.
Screening Cc1cccc(-c2nc(CS(=O)CC(=O)NC3CCCC3)c(C)o2)c1 (stereo unspecified) returned HPGD inh -14%.
For O=C(CN(Cc1ccccc1F)C(=O)Cn1nnc(-c2cccs2)n1)NCC1CCCO1 (stereo unspecified) the results were HPGD inh -6%.
Screening COc1cccc(C(=O)Nc2cccc(SC)c2)c1 returned HPGD inh -11%.
Screening Cc1ccc(S(=O)(=O)NNC(=O)C2Cc3c(ccc4ccccc34)O2)cc1 (stereo unspecified) returned HPGD inh -18%.
CC(C)C(c1nnnn1C1CCCCC1)N1CCN(c2ncccn2)CC1 (stereo unspecified) was read as HPGD inh -3%.
Screening Cc1ccc(-c2nnn(CC(=O)Nc3ccccc3-c3ccccc3)n2)c(-n2cnnn2)c1 returned HPGD inh -8%.
For O=C(Nc1ccccn1)c1ccc2ccccc2n1 the results were HPGD inh -24%.
`O=C(COc1ccc([N+](=O)[O-])cc1)NN=C1CCCC1` gave HPGD inh -5%.
N#Cc1cc(C(=O)c2ccccc2OCC(=O)Nc2ccccc2)cn(C2CCCCC2)c1=O was read as HPGD inh -1%.
O=C(Cn1cnc2c(cnn2-c2ccccc2)c1=O)NCCc1ccccc1 was read as HPGD inh -8%.
For CS(=O)(=O)N(CC(=O)Nc1cc(Cl)ccc1Cl)c1ccccc1Cl the results were HPGD inh -3%.
O=c1cc(-c2ccccc2)nc(N2CCCCC2)[nH]1 was read as HPGD inh -10%.
For COC(=O)CCC(=O)OC1(C)C(=O)C=C2C=C(C3CC3)N(c3ccccc3)C=C2C1=O (stereo unspecified) the results were HPGD inh -3%.
`Cc1ccc(C(=O)N/C(=C/c2ccc(Cl)cc2)C(=O)NCC2CCCO2)cc1` (stereo unspecified) gave HPGD inh -4%.
CCOC(=O)c1c(C)[nH]c(C(=O)COC(=O)COc2ccccc2C)c1C was read as HPGD inh -14%.
`O=C(Nc1cc(Cl)cc(Cl)c1)c1ccc(Cn2c(=O)[nH]c3ccsc3c2=O)cc1` gave HPGD inh 0%.
For CC(=O)N(CCN(C(C)=O)c1ccccc1)c1ccccc1 the results were HPGD inh -9%.
For Clc1ccccc1-c1nnc2sc(-c3ccc(Br)o3)nn12 the results were HPGD inh -25%.
Screening COCCn1c(COc2cccc(OC)c2)nnc1SCC(=O)N1CCOCC1 returned HPGD inh -3%.
`CCCc1nc2c(=O)n(C)c(=O)[nH]c2n1C` gave HPGD inh -12%.
Screening Cc1cc(C)c2c(N=NN3CCCCC3)[nH]nc2n1 returned HPGD inh -16%.
Screening CC1=CC(C)(C)Nc2ccc(OC(=O)C(Cc3ccccc3)N3C(=O)C4CCCCC4C3=O)cc21 (stereo unspecified) returned HPGD inh inconclusive.
CC1CN(C(=S)SCC(=O)c2ccccc2)CC(C)O1 (stereo unspecified) was read as HPGD inh -10%.
`COc1ccc(CCNC(=O)C(=O)NCc2ccc(C(C)C)cc2)cc1OC` gave HPGD inh -19%.
Cc1nc(SCC(=O)N2CCCc3ccccc32)c2oc3ccccc3c2n1 was read as HPGD inh -26%.
`O=C(CCn1c(=O)[nH]c2ccccc2c1=O)Nc1ccccc1` gave HPGD inh -8%.
`COc1ccccc1NC(=O)N1CCN(c2cccc(C(F)(F)F)c2)CC1` gave HPGD inh 1%.
`CC(=O)c1c(C)nn(CC(O)Cn2c3c(c4cc(C)ccc42)CCCC3=O)c1C` (stereo unspecified) gave HPGD inh inconclusive.
Screening CC1CCCCN1CC(=O)NC(=O)NCc1ccccc1 (stereo unspecified) returned HPGD inh 0%.
Screening COc1ccc(C2(O)CCN(C(=O)Cc3cccnc3)CC2)cc1 returned HPGD inh -1%.
Cc1ccc(OCC(O)CN2CCN(CC(O)COc3ccc(C)cc3)CC2)cc1 (stereo unspecified) was read as HPGD inh -12%.
`COc1ccc(N2CCN(c3nc(Nc4ccc(F)cc4)nc(OC)n3)CC2)cc1` gave HPGD inh -8%.

2 successive compounds already listed, for reference:
Screening CC1=CC(C)(C)Nc2ccc(OC(=O)C(Cc3ccccc3)N3C(=O)C4CCCCC4C3=O)cc21 (stereo unspecified) returned HPGD inh inconclusive.
CC1CN(C(=S)SCC(=O)c2ccccc2)CC(C)O1 (stereo unspecified) was read as HPGD inh -10%.

Screens deposited in PubChem BioAssay by National Center for Advancing Translational Sciences (NCATS).
